CDC25B CDK2 inh – human CDC25B-CDK2/CyclinA binding inhibition; P30305+P24941; HTRF CDC25B-CDK2/CyclinA binding, anti-His/anti-Flag; stronger effect = higher value; 94,000 tested, 0.72% active; AID 1259370; z-score (test concentration not listed);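 further: score is relative to mean and SD of negative controls; strong numbers were not always called active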
TAR Tat displ – HIV-1 TAR-Tat binding disruption; HIV-1 TAR RNA, Tat peptide displacement FRET; stronger effect = higher value; z-score (no concentration beside the values); 100,000 tested, 0.6% active; AID 1259389;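 further: score is relative to mean and SD of negative controls; some compounds called inactive have numbers as strong as hits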
* = called active by the depositor; · = not tested or not shown.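 How the source made its calls: active means z-score from 3 up in half or more of its runs; inactive means the rest.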 Compounds as they come. About 0.9% of those tested had a hit in this group.

Every second line gives: CDC25B CDK2 inh | TAR Tat displ
- CCC(Oc1ccc2c3c(c(=O)oc2c1)CCC3)C(=O)OCC(C)C (configuration not stated)
 : -0.13 | ·
- Cc1ccccc1-c1nc2c(c(SCc3ccncc3)n1)Cc1c(CO)cnc(C)c1O2
 : · | 1.51
- N/C(=N\OC(=O)Nc1ccc(Cl)cc1)c1ncc([N+](=O)[O-])s1
 : 1.28 | ·
- CCN(CC)CCOC(=O)c1ccc(N2CC(O)=C(c3nc4ccccc4s3)C2=N)cc1
 : -0.84 | 1.89
- Cn1nnnc1SCCCNCc1ccc2c(c1)OCO2
 : 0.14 | 0.9
- CN(C(=O)Cn1ncc2c(=O)oc3ccccc3c21)c1ccc(F)cc1
 : -0.83 | 0.17
- CCOC(=O)C1CCN(S(=O)(=O)c2ccc3c(c2)CCCC(=O)N3)CC1
 : · | 0.85
- CCCCOC(=O)Cn1c2ccccc2c2nc3ccccc3nc21
 : 3.56 | -1.03
- COC(=O)C1C2C=CC3(CN(C(C)c4ccccc4)C(=O)C13)O2 (configuration not stated)
 : 0.19 | 2.08
- COc1cc2c(cc1OC)C1=C(C#N)COCN1CC2
 : -2.4 | ·
- Cc1cc(C)cc(Nc2c(-c3ccc(N4CCOCC4)cc3)nc3sccn23)c1
 : -0.4 | -4.8
- O=C(Oc1ccc2ccccc2c1)c1ccccc1O
 : -1.79 | 1.43
- COc1cc(OC)cc(-n2nc(C(=O)Nc3cc(Cl)c(OC)cc3OC)c3ccccc3c2=O)c1
 : · | 0.53
- CC1CC(C)CN(C(=O)C2CCN(S(=O)(=O)c3ccc4c(c3)CC(C)N4C(=O)C3CC3)CC2)C1 (configuration not stated)
 : · | -0.52
- O=C(CN1N=NC2C(=O)N(c3ccc(F)c(Cl)c3)C(=O)C21)Nc1ccccc1F (configuration not stated)
 : · | 0.49
- CCOc1ccc(C2CC(=O)N3CN(CCO)CSC3=C2C#N)cc1 (configuration not stated)
 : 0.17 | 1.28
- COc1ccc(-c2nc(CSc3nc4ccncc4[nH]3)c(C)o2)cc1OC
 : -0.01 | -0.69
- O=C1CC(c2cc(F)ccc2F)c2cc(Br)c3ccccc3c2N1 (configuration not stated)
 : -1.37 | 2.98
- O=[N+]([O-])c1cnc(Sc2nc3cc(Cl)ccc3s2)s1
 : -2.18 | ·
- O=C(Cn1cnc(S(=O)(=O)N2CCOCC2)c1)Nc1ccc2c(c1)OCO2
 : · | -1.4
- Cc1sc2ncnc(N3CCc4ccccc4C3)c2c1C
 : -1.88 | 1.06
- Cn1c2ccccc2n2c3ccccc3c(=S)c(C#N)c12
 : -1.71 | ·
- Cc1noc(C)c1CCNc1ncnc2onc(-c3cccc(Cl)c3)c12
 : · | 0.25
- COc1ccc(-c2cc3nc(C)cc(NCC(C)C)n3n2)cc1OC
 : -0.86 | 2.6
- CC1(C)ONC(=O)N(CCc2cccs2)C1=O
 : -0.46 | ·
- CC(C)c1ccc(-c2c(NCCN3CCN(Cc4ccccc4)CC3)c(=O)c2=O)cc1
 : · | 2.5
- CNC(=O)c1[nH]nc2c1CCc1cc(OC)ccc1-2
 : · | 2.09
- O=C1CSC(c2ccc3c(c2)OCO3)N1c1ccc(Br)cc1 (configuration not stated)
 : 0.2 | 1.69
- CC1CCC(C(=O)Oc2ccc(Br)cc2)CC1 (configuration not stated)
 : -0.89 | 1.23
- O=C(Nc1ccccc1Br)c1cc2ccccc2oc1=O
 : -0.63 | ·
- O=C(Nc1cccc(F)c1)C1CC2CSCN2C12C(=O)Nc1ccccc12 (configuration not stated)
 : · | -0.58
- N#CC(C#N)=CNc1nccs1
 : -1.04 | ·
- CCN1CCN(c2oc(-c3ccc(S(=O)(=O)N4CCc5ccccc5C4)cc3)nc2C#N)CC1
 : -0.39 | -1.05
- Cc1noc(C)c1S(=O)(=O)Nc1ccc2c(c1)oc(=O)n2C
 : · | -0.08
- COCCOC(=O)C1=C(C)NC2=C(C(=O)CC(C)(C)C2)C1c1ccccn1 (configuration not stated)
 : -0.29 | 0.74
- O=c1[nH]c2cc3nc(C(F)(F)C(F)(F)F)[nH]c3cc2[nH]1
 : 0.38 | ·
- CCCCc1c(C)c(C#N)c2nc3ccccc3n2c1N1CCN(CCO)CC1
 : -2.4 | -0.55
- Cc1c(C(=O)NCCCN2CCOCC2)oc2ccc3c(c12)C(O)CC(C)(C)O3 (configuration not stated)
 : · | 0.46
- Clc1ccc(-c2nc3ccncc3[nH]2)cc1
 : 0.65 | ·
- Cc1ccc(C)c(NC(=O)C2CC(=O)N(c3ccc(C(C)C)cc3)C2)c1 (configuration not stated)
 : 1.29 | ·
- CC1CC2(CC(C)(c3csc(Nc4ccccc4)n3)OC2=O)C(=O)O1 (configuration not stated)
 : -0.2 | 1.8
- Cc1cccc(-c2noc(CN(C(=O)c3ccc4c(c3)OCO4)C(C)C)n2)c1
 : -1.4 | 3.27
- CCOC(=O)c1c(NC(=O)CSc2nnc3sc4ccccc4n23)sc2c1CCC2
 : -1.2 | ·
- Cc1cc(C)cc(Nc2nc(-c3ccccc3)no2)c1
 : · | 2.48
- COc1cc(C2/C(=C(/O)c3ccc(Cl)cc3)C(=O)C(=O)N2CC(C)C)ccc1O (configuration not stated)
 : -0.76 | -5.55
- COc1ccc2c(c1)cc1c(=O)n(CC(=O)NC3CC3)nc(C)n12
 : -0.03 | -0.06
- COC1OC(OC)C2C3CCC(CC3O)C12 (configuration not stated)
 : -1.96 | ·
- CCCCC(=O)N(c1ccc(OCC)cc1)C1C=CS(=O)(=O)C1 (configuration not stated)
 : -0.03 | -1.16
- CC(C(=O)N1CCN(c2ccccc2F)CC1)n1sc2ccccc2c1=O (configuration not stated)
 : -1.17 | 1.39
- O=C(CSc1nnc2ccc3ccccc3n12)Nc1ccc(S(=O)(=O)N2CCCC2)cc1
 : 0.19 | -1.23
- Fc1ccccc1C1C=C(c2cccs2)Nc2nnnn21 (configuration not stated)
 : -1.26 | ·
- COc1ccc(-c2nnc(SCc3ccc(Cl)cc3)o2)c(OC)c1
 : 1.45 | -0.29
- COCCCNC(=O)Cn1cc2c(n1)CCCC2
 : -1.62 | ·
- Cc1cc2n(n1)CCC(=O)N2CC(=O)NCc1cccs1
 : · | 0.18
- CC1CCN(C(=O)CCS(=O)(=O)c2cc(Br)cc3c2N(C(=O)C2CC2)CC3)CC1
 : -0.62 | ·
- Cc1cc(-c2ccc(C)c(S(=O)(=O)N3CCc4ccccc43)c2)on1
 : · | -0.95
- COc1ccccc1-c1nnc2sc(-c3ccccc3F)nn12
 : 0.57 | 2.08
- Cc1nn(CC(=O)NCCc2ccco2)c(=O)c2c(-n3cccc3)n(-c3ccc(Cl)cc3)nc12
 : · | 0.8
- COc1ccc(C2/C(=C(\O)c3ccc(F)cc3)C(=O)C(=O)N2c2nnc(C)s2)cc1OC (configuration not stated)
 : -2.16 | -1.44
- C=CCn1c(CCCN2C(=O)c3cccc4cccc(c34)C2=O)nnc1SC/C=C/c1ccccc1
 : -7.39 | ·

Later entries:
Every second line gives: CDC25B CDK2 inh | TAR Tat displ
- Cc1ncc(CCCCN(C)C)c2c1[nH]c1ccccc12
 : 1.14 | 3.66
- CCN1CCN(C(=O)Cn2cnc(S(=O)(=O)N3CCCC3)c2)CC1
 : · | 1.37
- O=C(Nc1nnc(Cc2ccc(Cl)c(Cl)c2)s1)Nc1ccccc1F
 : -2.02 | ·
- O=C(c1ccc(-n2ccc3ccccc32)s1)N1CCC(C(=O)N2CCCCC2)CC1
 : · | 0.41
- Cc1nc2sc3c(N4CCOCC4)ncnc3c2c2c1COC(C)(C)C2
 : -0.13 | 0.89
- CC(C)C(=O)Nc1ccc2c(c1)nc1n2CCN(C(C)C)C1
 : -1.58 | -4.7
- Cn1c2c(c(SCc3ccc(Cl)cc3)nc1=O)CCC2
 : 0.36 | 2.88
- O=C(OCC(O)CO)c1ccccc1Nc1ccnc2cc(Cl)ccc12 (configuration not stated)
 : · | 0.61
- Cc1ccc(-c2csc(N)n2)c(C)c1
 : -0.3 | -0.01
- COC(=O)c1[nH]nc2c1C(=O)N(c1ccc(F)cc1)C2=O
 : 2.93 | 0.81
- CCOC(=O)CC(=O)CSc1nc(N)c2c3c(sc2n1)CCCC3
 : -1.93 | -0.02
- Cc1c(C(=O)N2CCc3ccccc32)oc2c1C(=O)CC(C)(C)C2
 : -0.91 | -1.17
- O=C(NNC(=O)c1ccc(Cl)cc1Cl)c1ccc(OC(F)(F)F)cc1
 : -1.37 | ·
- O=c1c2[nH]c3ccc(F)cc3c2ncn1CCc1ccccc1
 : 0.04 | 1.11
- COc1ccc(OCc2cc(=O)n3c(C)csc3n2)cc1
 : -2.02 | -1.66
- Cc1nc(N2CCCC2)c2c(C(=O)Nc3cccc(F)c3)c(C)oc2n1
 : · | 0.02
- CC(CN1CCOCC1)OC(=O)c1ccco1 (configuration not stated)
 : -2.2 | 1.61
- COc1ccc2[nH]c(=O)c(CN(C)S(=O)(=O)c3ccccc3)cc2c1
 : -6.19 | 2.01
- CCOc1ccccc1NC(=O)Nc1c[nH]c(=O)[nH]c1=O
 : · | 0.11
- CCn1c[n+](CC(O)COc2ccc(OC)cc2)c2ccccc21 (configuration not stated)
 : -0.55 | 0.09
- CCCCOc1ccc(C2c3c(oc4ccc(C)cc4c3=O)C(=O)N2CCCN2CCOCC2)cc1 (configuration not stated)
 : -0.21 | 0.02
- COC(=O)c1ccc(C2C3=C(CC(c4ccco4)CC3=O)Nc3ccccc3N2C(=O)C2CC2)cc1 (configuration not stated)
 : 0.57 | ·
- COc1ccccc1-c1cc(C(F)(F)F)n2ncc(C(=O)OCCN3CCCC3=O)c2n1
 : 0.21 | 1.77
- O=C(Nc1c(C(=O)N2CCN(c3ncccn3)CC2)oc2ccccc12)C1CCCCC1
 : · | 0.44
- Cc1onc(C(=O)Nc2ccc(Cl)cc2)c1[N+](=O)[O-]
 : -1.64 | -1.34
- O=C(CCc1nnc2ccc(N3CCCCC3)nn12)NCc1ccc(CN2CCOCC2)o1
 : · | 1.51
- CCOC(=O)c1c(C)oc2nc(C)nc(Nc3ccc(F)cc3)c12
 : · | -0.55
- COC(=O)c1cnc(N2CCCN(S(=O)(=O)c3cccc4nonc34)CC2)nc1C(F)(F)F
 : -1.88 | ·
- CCCCn1c(SCC(=O)c2ccccc2)nc2c1c(=O)[nH]c(=O)n2C
 : -1.99 | -0.53
- O=c1oc2cc3occ(-c4ccc5c(c4)OCO5)c3cc2c2c1CCCC2
 : -1.02 | ·

In the list so far, these have a thiophene ring, fused or not.
Every second line gives: CDC25B CDK2 inh | TAR Tat displ
- Cc1sc2ncnc(N3CCc4ccccc4C3)c2c1C
 : -1.88 | 1.06
- CC1(C)ONC(=O)N(CCc2cccs2)C1=O
 : -0.46 | ·
- CCOC(=O)c1c(NC(=O)CSc2nnc3sc4ccccc4n23)sc2c1CCC2
 : -1.2 | ·
- Fc1ccccc1C1C=C(c2cccs2)Nc2nnnn21 (configuration not stated)
 : -1.26 | ·
- Cc1cc2n(n1)CCC(=O)N2CC(=O)NCc1cccs1
 : · | 0.18
- O=C(c1ccc(-n2ccc3ccccc32)s1)N1CCC(C(=O)N2CCCCC2)CC1
 : · | 0.41
- Cc1nc2sc3c(N4CCOCC4)ncnc3c2c2c1COC(C)(C)C2
 : -0.13 | 0.89
- CCOC(=O)CC(=O)CSc1nc(N)c2c3c(sc2n1)CCCC3
 : -1.93 | -0.02

The list goes on.
Every second line gives: CDC25B CDK2 inh | TAR Tat displ
- Cc1cc2nc(CSc3nnc(NC(=O)C(C)(C)C)s3)c(=O)[nH]c2cc1C
 : · | -2.81
- COc1ccc(N2CSC3=C(C#N)C(c4cccc(OC)c4OC)CC(=O)N3C2)cc1 (configuration not stated)
 : 4* | -5.68
- CCc1nn(CC(=O)N2CCC(N3CCCCC3)CC2)c(=O)c2cc3occc3n12
 : -0.02 | -0.27
- O=C(NCC1CCCO1)c1ccc(CN2C(=O)CCn3nccc32)cc1 (configuration not stated)
 : · | 0.63
- CCc1nn(C(C)C(=O)NC(C)CCc2ccco2)c(=O)c2cc3occc3n12 (configuration not stated)
 : 1.13 | 2.46
- Cc1ccc(NC(=O)CN(C2=NC3CS(=O)(=O)CC3S2)c2ccc(C(C)C)cc2)cc1 (configuration not stated)
 : 1.47 | -1
- COc1cc(NC(=O)c2ccc(Cl)cc2)nc(OC)n1
 : -0.9 | 0.96
- Cc1ccc(Nc2cc(=O)[nH]n2C)cc1Cl
 : 0.61 | ·
- O=C(CCC(=O)N1CCOc2ccc(Cl)cc21)N1CCN(c2ccccc2)CC1
 : 0.56 | -1.1
- COc1cc(C2c3c(oc4ccc(Cl)cc4c3=O)C(=O)N2Cc2ccccc2)ccc1O (configuration not stated)
 : 0.22 | -0.51
- c1ccc(-c2nc3ccccn3c2Nc2ccc3c(c2)OCCO3)cc1
 : 0.35 | 2.06
- CCCCOC(=O)CSCC(=O)Nc1cc(C)on1
 : 0.72 | ·
- CCn1c2ccccc2c2nnc(SCC(=O)Nc3nnc(C(C)C)s3)nc21
 : 1.56 | 0.83
- CCC(=O)Nc1c(C(=O)N2CCN(C(=O)c3ccco3)CC2)oc2ccccc12
 : · | 1.4
- CCCN1C(=O)SC(CC(=O)Nc2ccc(Br)cc2)C1=O (configuration not stated)
 : 0.51 | ·
- Cc1nn2c(=O)cc(CSc3ccccc3NC(=O)c3ccco3)nc2s1
 : · | -0.08
- CC1CCC(NC(=O)C2(C)Cn3c(cc4occc43)C(=O)N2CCCN2CCCCC2)CC1 (configuration not stated)
 : · | 2.13
- Cc1cc2c(cc1S(=O)(=O)Nc1ccc(F)c(Cl)c1)OCC(=O)N2
 : · | 1.02
- Cc1cccn2c(=O)c3cc(C(=O)N4CCc5ccccc54)sc3nc12
 : 0.01 | -0.86
- Cc1cc(C)c2c(-n3cccc3)nn(CCCC(=O)NCCN(C)C)c2n1
 : · | 1.02
